From PubChem BioAssay
Mtb growth = M. tuberculosis H37Rv growth inhibitors, H37Rv strain (AID 1626). M. tuberculosis H37Rv growth inhibition; higher % means a stronger effect. inhibition, % at 10 µM; hits with a dose series show IC50 in µM. 0.95% of 220,000 active;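 active = confirmed in a dose series; inconclusive = inhibition above 80% but not taken into the dose series; inactive = below 80% or under 30% at every dose of the series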;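 note: bacteria incubated seven days before Alamar blue readout; 0% = bacteria only wells and 100% = bacteria with antibiotic wells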
RecA splice inh = Mtb RecA intein splicing inhibition | P9WHJ3 | cell-free RecA intein splicing, fluorescence | inhibition, %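 (about 9 µM by stock and volumes)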 | 0.75% of 290,000 active; in the data active = inhibition above about 30%; inconclusive = no clear call, values can overlap the other calls;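 note: 0% = vehicle wells and 100% = reference inhibitor control wells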
Target sequence (P9WHJ3 whole entry, looked up, canonical isoform): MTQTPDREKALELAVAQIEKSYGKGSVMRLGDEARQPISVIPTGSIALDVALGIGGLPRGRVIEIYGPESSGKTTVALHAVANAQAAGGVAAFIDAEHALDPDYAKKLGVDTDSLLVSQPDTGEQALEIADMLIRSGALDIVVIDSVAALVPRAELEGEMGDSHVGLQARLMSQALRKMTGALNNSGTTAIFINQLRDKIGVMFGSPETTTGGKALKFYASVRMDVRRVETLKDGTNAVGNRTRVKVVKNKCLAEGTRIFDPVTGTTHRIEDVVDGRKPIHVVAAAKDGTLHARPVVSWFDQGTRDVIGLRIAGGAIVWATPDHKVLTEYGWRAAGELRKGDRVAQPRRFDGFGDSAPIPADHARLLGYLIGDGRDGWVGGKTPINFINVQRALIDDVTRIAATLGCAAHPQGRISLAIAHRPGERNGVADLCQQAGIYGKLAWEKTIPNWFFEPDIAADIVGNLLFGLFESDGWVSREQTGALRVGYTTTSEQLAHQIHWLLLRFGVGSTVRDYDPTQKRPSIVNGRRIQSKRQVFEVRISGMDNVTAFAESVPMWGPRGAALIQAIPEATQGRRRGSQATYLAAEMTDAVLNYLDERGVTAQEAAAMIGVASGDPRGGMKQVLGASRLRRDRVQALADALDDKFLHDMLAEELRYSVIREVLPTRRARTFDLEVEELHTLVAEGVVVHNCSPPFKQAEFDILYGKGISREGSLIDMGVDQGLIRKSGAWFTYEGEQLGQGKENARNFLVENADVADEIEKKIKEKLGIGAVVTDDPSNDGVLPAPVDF
Arbovirus inh = arbovirus infection inhibition | arbovirus infection cell-based antiviral screen | AID 1251 | inhibition, % at 10 µM | 0.37% of 200,000 active;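 active = inhibition from about 30%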;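 note: bluetongue infection of BSR cells; cell survival read as ATP light after 72 h; 0% = infected wells without compound and 100% = uninfected wells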
YopH inh = inhibitors of Yersinia enterocolitica YopH tyrosine phosphatase; inhibition, %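 (about 10 µM by stock and volumes)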; 0.16% of 140,000 active; fluorescence Ex485/Em525; AID 898;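 active = inhibition of 50% or more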;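 note: controls were vehicle for no effect and minimum signal wells for full effect; inactives centre near -20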
Mtb betalactam = beta-lactam sensitization of Mtb H37Rv | M. tuberculosis H37Rv growth with meropenem, percent inhibition; hits of this screen are not shown here | AID 434955 | inhibition, % at 25 µM | 0.27% of 330,000 active;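 active = about 74% or more and at least 40 points above the plate without the antibiotic, then above 30% in a dose series; inconclusive = first-round hits that could not be retested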;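 note: growth measured after seven days incubation then overnight dye step; 0% = bacteria only wells and 100% = bacteria with antibiotic; twin plates without the antibiotic show which effects depend on it; some results filed as inactive read as strong as hits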
Arbovirus inh repeat = recorded beside Arbovirus inh, whose call it bears; inhibition, %; measured here: 10K subset replicate screen; many hits read low in the repeat;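 first of two repeat runs on a subset; 0% = infected and 100% = uninfected wells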
* = called active by the depositor; ? = inconclusive; / = not tested or not shown.

SMILES | Mtb growth | RecA splice inh | Arbovirus inh | YopH inh | Mtb betalactam | others
CCCCOc1ccc(OCCNS(=O)(=O)N(C)C)cc1 | 5% | 0.1 | 3 | -20 | -7
CC(=O)Nc1ccccc1-c1nc2ccccc2nc1OCC(=O)c1ccc(Br)cc1 | 2% | 0.3 | -9 | -34 | 41
CCC(C)NC(=O)CN1c2cccc3cccc(c23)S1(=O)=O (stereo not drawn) | / | 1.9 | / | / | -3
N#CCCN(C(=O)COC(=O)COc1ccc(Cl)cc1)c1ccccc1 | 2% | 1.1 | 1 | / | 6
Cc1ccc(-n2cccc2/C=C2/C(=N)N3C(=NC2=O)SN=C3S(C)(=O)=O)cc1 | -7% | -2.9 | 47* | / | -1
CC(=O)Nc1ccc(OCC=C(Cl)Cl)cc1 | ? | 4.8 | -5 | -5 | 97 | Arbovirus inh repeat=2
Cc1cccc(C)c1N(CC(=O)Nc1cc(Cl)ccc1Oc1ccccc1)S(C)(=O)=O | 3% | 0.9 | -7 | -10 | -1
C/C(CCc1c[nH]c2ccccc12)=N\O | -12% | -4.1 | 13 | -20 | 11
CCOC(=O)/C(=C/c1c[nH]c2ccccc12)NC(C)=O | 1% | 0.3 | 5 | -42 | -11
CCc1cccc2c(C(=O)CN3C(=O)NC4(CCc5ccccc54)C3=O)c[nH]c12 (stereo not drawn) | / | -1.9 | / | / | 1
CC(O)CNc1nc(NCc2ccccc2)c2cnn(C)c2n1 (stereo not drawn) | / | -3.5 | / | / | 3
O=C(CCCn1c(=O)c2sccc2n(Cc2cc(=O)n3ccccc3n2)c1=O)NCc1ccco1 | -6% | 2.5 | 6 | -30 | -2 | Arbovirus inh repeat=0
COc1ccc(CN2C(=O)CCC2(C)C(=O)NC2CCCCC2)c(OC)c1 (stereo not drawn) | 5% | -1.0 | -3 | -47 | 0
COc1cc(/C=C/CN2CCN(CCC(C)C)C(CCO)C2)ccc1O (stereo not drawn) | -1% | -4.9 | -10 | / | -6
c1ccc(-c2cc(-c3ccc(N4CCOCC4)cc3)nc3ccccc23)cc1 | 27% | -10 | 10 | -32 | /
Cc1nn(-c2ccc(C(F)(F)F)cn2)c(C)c1Oc1ccccc1O | 10% | 4.8 | -7 | -7 | 68
C#CCn1c(=NC(=O)c2ccc(Br)s2)sc2cccc(OC)c21 | 50% | 2.7 | -31 | -26 | 2
COc1cccc(OC)c1C(=O)Nc1nc2ccc([N+](=O)[O-])cc2s1 | -2% | -1.2 | 0 | / | 0
Fc1ccc(NC(=S)NCc2ccccc2Cl)cc1 | 5% | 7.8 | 8 | -3 | 4
CC(=O)c1ccc(-n2c(C)c(C(C)=O)c3cc(O)ccc32)cc1 | / | -1.4 | / | / | 5
CCCn1c(SCC(N)=O)nnc1-c1ccco1 | -1% | -3.4 | 1 | -20 | 1
CCOC(=O)c1c(N)sn(-c2ccccc2)c1=S | 1% | -1.0 | 0 | -4 | -12
COc1ccc(S(=O)(=O)NCC2CCC(C(=O)N3CCC4(CC3)OCCO4)CC2)cc1 (stereo not drawn) | -1% | -0.8 | -12 | -24 | / | Arbovirus inh repeat=0
CCCCN(C)C(=O)CC(NS(=O)(=O)c1ccc(NC(C)=O)cc1)C(C)C (stereo not drawn) | 5% | -1.6 | 5 | / | 9
O=C(Cc1ccc(F)cc1)N1CCN(c2ccc([N+](=O)[O-])cc2)CC1 | / | 1.7 | / | / | -5

The list goes on, starting with the last 4 of the part before.
SMILES | Mtb growth | RecA splice inh | Arbovirus inh | YopH inh | Mtb betalactam | others
CCOC(=O)c1c(N)sn(-c2ccccc2)c1=S | 1% | -1.0 | 0 | -4 | -12
COc1ccc(S(=O)(=O)NCC2CCC(C(=O)N3CCC4(CC3)OCCO4)CC2)cc1 (stereo not drawn) | -1% | -0.8 | -12 | -24 | / | Arbovirus inh repeat=0
CCCCN(C)C(=O)CC(NS(=O)(=O)c1ccc(NC(C)=O)cc1)C(C)C (stereo not drawn) | 5% | -1.6 | 5 | / | 9
O=C(Cc1ccc(F)cc1)N1CCN(c2ccc([N+](=O)[O-])cc2)CC1 | / | 1.7 | / | / | -5
CCCC(=O)NC(c1ccc(Cl)cc1Cl)c1ccc2cccnc2c1O (stereo not drawn) | / | 2.1 | / | / | 4
N#Cc1ccc(OCCOCCNC2CCCC2)cc1 | 7% | 1.5 | 3 | -23 | 2
CCc1ccccc1NC(=O)/C(C#N)=C\c1ccc(Sc2ccccc2)o1 | 13% | / | -4 | -31 | 16
CCn1c(SCC(=O)NCCc2ccccc2)nnc1-c1cccs1 | -9% | 0.3 | 6 | -30 | -9
COC(=O)c1cc(NC(=O)Nc2cccc(Cl)c2)ccc1Cl | 69% | 14 | -14 | -24 | 98
O=C(N/N=C/c1ccncc1)C12CC3CC(CC(C3)C1)C2 | 0% | -4.3 | 18 | / | -5
CCCCN1C(C)=CC(=C2C(=O)c3ccccc3C2=O)C=C1C | 6% | 0.2 | -6 | / | 7
Cn1c(=O)cc2c3c(c(N4CCCCC4)ccc31)C(=O)c1ccccc1-2 | 4% | -48 | / | / | 8
CCOC(=O)c1c(-c2ccccc2)nc2ccc(Cl)cn12 | 11% | 4.6 | -3 | -26 | 18
CC(C)(C)c1cc(C(=O)N/N=C/c2ccccc2O)n(-c2ccccc2)n1 | 0% | 7.5 | -3 | -18 | 9
Nc1nc(SCC(=O)Nc2ccc(Cl)cn2)n[nH]1 | 5% | -1.8 | 5 | / | -3
O=C(N/N=C/c1ccncc1)c1ccccc1OCc1ccc(Br)cc1 | 9% | 6.8 | -13 | -27 | 11
O=C(O)CCC(=O)NCCn1c(-c2ccccc2)csc1=Nc1ccccc1 | -4% | 1.9 | 5 | -23 | 10
O/N=C\c1cccn1-c1ccc(Br)cc1 | 8% | 1.9 | 0 | -15 | 20
CS(=O)(=O)N1CCC(C(=O)Nc2cccc(C(F)(F)F)c2)CC1 | 1% | -0.4 | -2 | -5 | -6
COc1ccc(C(C)=O)cc1COc1cc(C)c(Cl)c(C)c1 | 0% | 1.7 | / | / | -1
Cn1cccc1/C=C(/C#N)C(N)=S | 6% | -1.0 | -1 | -19 | -2
COC(=O)c1ccccc1NC(=O)C12CCC(C)(C(=O)O1)C2(C)C (stereo not drawn) | -7% | -0.2 | 12 | -16 | 5
Cc1cc(C(=O)NC2CCCC2)on1 | 3% | -1.1 | 11 | -47 | -6 | Arbovirus inh repeat=-1
CCOc1ccc(-c2onc(C(F)(F)F)c2-c2cscn2)c(O)c1 | 7% | 2.6 | -3 | 10 | /
O=C(CSc1nnnn1C1CCCCC1)NCc1ccc2c(c1)OCO2 | -12% | -0.7 | 4 | -17 | -10
CCCN(c1ccc(OCC)cc1)c1ncnc2nc[nH]c12 | 0% | 5.1 | 7 | -20 | -4
O=C(N/N=C/c1cccc([N+](=O)[O-])c1)c1ccc(Br)cc1 | -4% | 1.7 | -1 | / | -3
COc1cc(OC)c(S(=O)(=O)N2CCN(C(=O)c3ccco3)CC2)cc1NC(C)=O | / | -3.2 | / | / | -4
COC(=O)c1cccc(Nc2nc3ccccc3nc2C)c1 | 1% | -11 | -4 | -4 | 83
SMILES | Mtb growth | RecA splice inh | Arbovirus inh | YopH inh | Mtb betalactam | others
COc1cc2c(cc1OC)C1(CCCC1)C(N)=C2C#N | -2% | -5.7 | -8 | -1 | 19
CCOC(=O)N1CCc2c(sc(NC(=O)Cc3ccccc3)c2C(=O)c2ccc(OC)cc2)C1 | -5% | 13 | / | / | 4
CCc1nnc(NC(=O)c2ccc(Cl)c(S(=O)(=O)N3CCc4ccccc43)c2)s1 | 2% | 3.7 | 15 | -11 | 9
CSCC[C@H](NC(=O)c1ccc2ccccc2c1)C(=O)N1CCC2(CC1)NCCc1[nH]cnc12 | / | -1.3 | / | / | 1
CC12CCC(C[N+](C)(C)C1)C2(C)C (stereo not drawn) | 1% | 1.7 | 6 | / | 11
CCCCCn1c(SCCC(C)C)nc2c1c(=O)[nH]c(=O)n2C | 8% | 6.5 | -41 | -37 | -6
Clc1ccc(-n2ncc3c(NCc4cccs4)ncnc32)cc1 | 4% | 1.1 | 3 | -27 | 2
COCCCNc1nc(N)c([N+](=O)[O-])c(NC2CCCCC2)n1 | / | -0.6 | / | / | 4
CN(C)S(=O)(=O)c1ccc(C(=O)NCCSc2ccccc2)cc1 | 2% | -5.7 | -7 | -4 | -5
CCOC1Cc2ccccc2N(C(N)=O)c2ccccc21 (stereo not drawn) | 0% | 0.4 | 7 | -13 | 1
O=C(Nc1c2c(nn1-c1ccc(F)cc1)CS(=O)(=O)C2)c1ccc(Br)o1 | / | -0.3 | / | / | -3
N#Cc1nc(-c2cccs2)oc1NCCN1CCOCC1 | / | -1.6 | 6 | 3 | -9
CCCOC(=O)Nc1nc2ccccc2o1 | -7% | / | 0 | -42 | 24
CC1(C)CC(N=c2cc(-c3ccccc3)oc3ccc(Cl)cc23)CC(C)(C)N1 | 1% | 0.2 | -34 | / | /
Cc1nn(C(C)C(=O)NC2CCCCCC2)c(=O)c2nn(-c3ccccc3)c(C)c12 (stereo not drawn) | / | -0.8 | / | / | 0
Cc1ccccc1NC(=O)NCc1cccnc1 | / | -0.8 | / | / | -1
Cc1noc(C)c1COc1ccccc1C(=O)N(C)CC(=O)Nc1ccc(Cl)c(Cl)c1 | / | 5.1 | / | / | -2
O=C1N=NC(=O)N1c1ccccc1 | / | -2.7 | / | / | -2
CC(C)Oc1ccc(C(=O)Nc2c3c(nn2C(C)(C)C)CS(=O)(=O)C3)cc1 | / | -0.3 | / | / | 4
COC(=O)CN(C#N)c1nc(NC(C)C)nc(OC)n1 | -3% | 3.1 | -2 | -20 | 7
COc1ccc(-c2cc(=O)oc3cc(OCC(=O)NCCN4CCOCC4)ccc23)cc1 | / | -2.3 | / | / | 5
Cc1cc(S(=O)(=O)NCc2ccc3c(c2)OCO3)ccc1F | / | 1.0 | / | / | -13
O=c1oc2ccccc2c(NC2CCCCC2)c1NS(=O)(=O)c1ccc(Cl)cc1 | / | -0.8 | / | / | -2
CC(C)Cc1cc(C(=O)N2CCCC(C(=O)c3cc(F)ccc3F)C2)no1 (stereo not drawn) | / | 2.8 | / | / | 5
S=c1[nH]nc(CSCc2ccccc2Cl)n1C1CCCCC1 | 4% | 11 | 0 | / | /

By substructure, the compounds so far containing a nitro group on carbon.
SMILES | Mtb growth | RecA splice inh | Arbovirus inh | YopH inh | Mtb betalactam | others
COc1cccc(OC)c1C(=O)Nc1nc2ccc([N+](=O)[O-])cc2s1 | -2% | -1.2 | 0 | / | 0
O=C(Cc1ccc(F)cc1)N1CCN(c2ccc([N+](=O)[O-])cc2)CC1 | / | 1.7 | / | / | -5
O=C(N/N=C/c1cccc([N+](=O)[O-])c1)c1ccc(Br)cc1 | -4% | 1.7 | -1 | / | -3
COCCCNc1nc(N)c([N+](=O)[O-])c(NC2CCCCC2)n1 | / | -0.6 | / | / | 4

Carrying on:
SMILES | Mtb growth | RecA splice inh | Arbovirus inh | YopH inh | Mtb betalactam | others
Cc1ccc(NC(=O)C2CCCN2S(=O)(=O)c2ccc3c(c2)n(C)c(=O)c(=O)n3C)cc1 (stereo not drawn) | -7% | -2.8 | / | / | -3
COc1ccc(C(CCN(Cc2ccc(OC)c(OC)c2)C(C)=O)C(C)C)cc1 (stereo not drawn) | / | 5.0 | / | / | 2
CC(C)C1Oc2ccccc2N(CC(=O)N(Cc2ccncc2)Cc2ccco2)C1=O (stereo not drawn) | -5% | 2.8 | -5 | -3 | -3
CCOc1ccc(CCNC(=O)CN2CCN(Cc3ccc(F)cc3)C2=O)cc1OCC | 3% | -3.2 | 6 | -16 | 5
COc1ccc(CCNC(=O)C(=O)NCC2CCCN2S(=O)(=O)c2cccs2)cc1 (stereo not drawn) | / | -1.9 | / | / | 2
COc1cccc(NC(=O)CCN2CCOCC2)c1 | / | 0.8 | / | / | -8
COc1ccccc1NC(=O)Cn1cnc2sc(C)c(S(=O)(=O)N3CCCCC3)c2c1=O | -10% | 0.3 | 1 | -24 | 3
COc1ccc(S(=O)(=O)N2CCCCCC2)cc1C(=O)N1CCCC(C(F)(F)F)C1 (stereo not drawn) | / | 1.7 | / | / | -3
CC1CCCC(NC(=O)COC(=O)c2c[nH]c(=O)[nH]c2=O)C1C (stereo not drawn) | -10% | / | 5 | -14 | -7
CC(C)(C)NC(=O)NCC1CCCC1NC(=O)NC(C)(C)C (stereo not drawn) | 0% | -0.8 | / | / | 1
CCOC(=O)c1c(NC(=O)c2ccc(S(=O)(=O)N3CCOCC3)cc2)sc2c1CCN(C)C2 | 3% | -2.5 | 7 | -45 | 35
O=C1c2cccc3cccc(c23)C(=O)N1/N=C/c1ccc(O)cc1O | 6% | 1.5 | -11 | -37 | -1
CCOC(=O)C1(Cc2cccc(OC)c2)CCCN(S(=O)(=O)N(C)C)C1 (stereo not drawn) | / | 0.4 | / | / | -5
C=CCNC(=O)c1cc(-c2ccc(Br)cc2)on1 | / | -1.2 | 1 | -56 | 7
COc1ccc(OCc2cc(C(=O)N3CCCC3)no2)c2ccccc12 | / | 12 | / | / | 5

A portion of the library. The share of hits here may be higher or lower than overall.
